# CSC inhib: blocks cancer stem cells; cancer stem cell-like cells viability, luminescence; inhibition, % at 7.5 µM; 1.1% of 300,000 active;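 active = mean at 75% or more and at least half the replicates too; tested in HMLE shEcad cells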;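 also: 0% = median of negative and 100% = median of positive control wells; the first replicate is given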
# PABP polyA inh: PABP-poly(A) binding inhibition | 1% of 290,000 active | P11940 | AID 2014 | PABP-poly(A) RNA binding, fluorescence polarization | inhibition, % at 35 µM;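 active = 50% or more with normal probe brightness, or confirmed in later tests; about a fifth of its hits are not listed in these tables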;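 also: calls also rest on retests at 20 µM and on dose response follow-up; controls were probe without protein and protein plus probe with vehicle; some compounds called inactive have numbers as strong as hits; many hits fall short of the cut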
# Target sequence (P11940 whole entry, looked up): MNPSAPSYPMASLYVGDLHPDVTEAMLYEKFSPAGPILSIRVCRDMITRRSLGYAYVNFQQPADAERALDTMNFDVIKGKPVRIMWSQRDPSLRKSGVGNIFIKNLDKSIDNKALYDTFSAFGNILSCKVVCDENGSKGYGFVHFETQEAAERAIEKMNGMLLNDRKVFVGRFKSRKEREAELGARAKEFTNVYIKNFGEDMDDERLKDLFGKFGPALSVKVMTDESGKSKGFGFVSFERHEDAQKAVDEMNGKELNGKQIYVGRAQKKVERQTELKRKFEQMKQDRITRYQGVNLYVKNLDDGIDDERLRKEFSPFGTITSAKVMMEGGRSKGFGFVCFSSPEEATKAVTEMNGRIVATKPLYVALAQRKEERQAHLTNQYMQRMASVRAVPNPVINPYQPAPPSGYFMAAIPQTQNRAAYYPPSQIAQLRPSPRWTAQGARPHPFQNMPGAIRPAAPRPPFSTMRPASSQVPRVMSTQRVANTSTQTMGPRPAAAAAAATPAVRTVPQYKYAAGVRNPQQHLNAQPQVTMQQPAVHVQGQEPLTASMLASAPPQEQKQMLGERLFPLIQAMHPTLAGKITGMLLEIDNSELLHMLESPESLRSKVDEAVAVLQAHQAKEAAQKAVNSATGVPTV
# UUG fidelity: alters start codon recognition fidelity in yeast; S. cerevisiae UUG-firefly luciferase reporter, luminescence/redox ratio; activity score, % at 18.7 µM; 0.13% of 350,000 active;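 active = replicate mean at a twofold rise or more, about +100% in these data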;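 also: firefly luciferase made from a UUG start codon reports start codon fidelity; reporter light over untreated wells divided by growth signal over untreated wells; some hits fall short of that in this replicate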
# Env fusion inh: HIV envelope-mediated fusion inhibition | 1.1% of 360,000 active | AID 651610 | inhibition, % at 12.3 µM | HeLa-JRFL Env/CEM21 cell fusion, luciferase;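 active = mean replicate inhibition score of at least 50 and every replicate individually at or above 50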;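 also: 0% = plate neutral controls and 100% = maraviroc near 300 nM; one replicate is shown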
# eIF4H inh: inhibitors of RNA binding by human eIF4H; AID 2012; 0.94% of 290,000 active; inhibition, % at 35 µM; eIF4H fluorescence polarization binding assay;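 active = 50% or more with normal probe brightness, or confirmed in later tests; about a fifth of its hits are not listed in these tables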;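 also: calls also rest on retests at 20 µM and on dose response follow-up; 0% = protein and probe with vehicle and 100% = probe without protein; strong numbers were not always called active; many hits fall short of the cut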
# Rce1 inhib: yeast Ras-converting enzyme inhibition | Q03530 | yeast membranes, quenched prenylated peptide cleavage fluorescence | calls only | 0.27% of 290,000 active;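 active = fall in fluorescence gain of 50% or more versus controls, with final raw signal at or below 3038400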;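 also: plate controls were neutral control wells for no effect and wells lacking membranes for full effect; tested at 10 µM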
# MT1-MMP act inh: blocks activation of human MT1-MMP. P50281. HT1080 RFP-PRO-GFP cells, GFP/RFP ratio fluorescence, overnight; percent of plate control window, DMSO zero. GFP/RFP ratio change, % at 20 µM. 0.061% of 360,000 active;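 active = GFP/RFP ratio change of at least 30% with cell ATP level not reduced by more than half and red fluorescence within 50% of control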; also: strong numbers were not always called active
#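 Assay system: HT1080 RFP-PRO-GFP cells | Dosing: 20 µM single dose, 1% DMSO | Incubation: Cells overnight before dosing, compound overnight, 37 °C, 5% CO2 | Evaluation: GFP/RFP fluorescence ratio | Control set: DMSO-only wells and HT1080 RFP-L50D-GFP cell wells as references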
# MT1-MMP act inh RFP: recorded beside MT1-MMP act inh, whose call it bears; RFP signal change, %; measured here: RFP expression control read;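 0 = vehicle wells; hits needed this value within 50% of zero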
# Active calls of the source: *; i = inactive; · = not tested or not shown; + = active, no number.
# Order of values: UUG fidelity, Rce1 inhib, Env fusion inh, MT1-MMP act inh RFP, PABP polyA inh, CSC inhib, MT1-MMP act inh, eIF4H inh
Cc1ccc(CNC(=O)COC(=O)c2ccc(Br)o2)cc1
    5, ·, ·, 1, ·, -10, -1, ·
COC(=O)c1cc(OC)ccc1-c1ccc(OC)cc1
    -10, i, ·, 1, 2, 5, -1, 2
COc1ccc(NC(C(=O)Nc2cccc(C(C)=O)c2)c2ccccc2)cc1 (stereo not given)
    10, i, -2, 3, 1, -8, -3, 0
CCOC(=O)c1[nH]c(C)c(C(=O)OCC(=O)N(Cc2ccccc2)C(C)C)c1C
    -2, ·, -3, -8, ·, -4, -3, ·
Cc1nc(NCCCN2CCOCC2)c2cnn(-c3ccccc3)c2n1
    9, ·, -28, -2, ·, ·, 3, ·
COc1ccc(NC(=O)COC(=O)c2ccc3c(c2)OCCO3)cc1
    -8, ·, -5, 7, ·, ·, 2, ·
CC(C)CNS(=O)(=O)c1ccc(CCC(=O)NCc2ccncc2)cc1
    ·, i, 4, 5, 9, -5, -1, 9
c1ccc(CN2C3=NCCCN3c3ccccc32)cc1
    -7, i, ·, ·, 13, -17, ·, 6
Cc1cccc(C2c3[nH]c4ccccc4c3CCN2C(=O)Cc2nc(-c3ccccc3)n[nH]2)n1 (stereo not given)
    2, i, -7, -4, 3, 9, -2, 4
CCS(=O)(=O)c1ccc(C(=O)NC2CC2)c(Cl)c1Cl
    ·, i, 21, 7, -8, -4, 3, -4
COc1cccc(C2=NOC(C(=O)NCc3ccccc3)C2)c1 (stereo not given)
    9, i, -74, 3, -9, ·, 6, 4
O=C1CCCC(=O)N1c1ccc(N2CCN(c3ccccc3)CC2)c([N+](=O)[O-])c1
    -20, i, -40, -1, -12, -1, -1, 5
Cc1ccsc1C(=O)OCC(=O)N1CCN(C(=O)c2ccco2)CC1
    ·, i, -12, 0, 14, -11, 3, 0
CC(C)C(=O)Nc1cccc(NC(=S)NC(=O)C(c2ccccc2)c2ccccc2)c1
    -17, +, -470, -20, -3, 67, -21, 10
Cc1cccc(NC(=O)C2CCN(S(=O)(=O)c3cccs3)CC2)n1
    ·, i, 10, -8, 1, 7, -1, -3
COc1ccc(NC(=O)COC(=O)CNS(=O)(=O)/C=C/c2ccccc2)cc1OC
    -21, ·, ·, 3, ·, 4, 3, ·
Cn1c(SCc2ccc(F)cc2)nnc1-c1cccs1
    ·, i, ·, 2, -14, 2, -1, -4
CC(C)CCn1c(-c2nonc2N)nc2ccccc21
    -17, i, ·, -18, -4, -3, -15, -3
CCCCCOC(=O)C1=C(C)NC(=O)NC1c1ccc(N(C)C)cc1 (stereo not given)
    -18, i, 17, -3, 0, -9, 1, 3
CC(=O)C(=Cc1ccc(C(=O)O)cc1)C(C)=O
    ·, i, 8, 2, 7, -11, 0, 29
CC1=C(C(N)=O)C(c2ccccc2F)n2nc(CCCO)nc2N1 (stereo not given)
    -8, i, ·, 5, -10, -11, -1, -7
COc1ccc(OC)c2[nH]c(=O)c(CCNC(=O)c3ccc4c(c3)OCO4)cc12
    -10, i, 12, 1, -15, -12, 1, 7
OC(COc1ccc2c(c1)OCO2)CN1CCN(c2ccccc2)CC1 (stereo not given)
    ·, i, 14, 7, 6, 2, 4, 45
O=C(Cc1ccc(F)cc1)N/N=C/c1ccc2c(c1)OCO2
    -20, i, 15, 1, 10, 1, -6, 8
O=C(OCC1CCNCC1)c1ccc2c(c1)OCO2
    -9, i, -19, -1, 8, -8, -5, -2
COc1ccc(C)cc1NC(=O)C1CCCN1S(=O)(=O)c1ccc2c(c1)CCC(=O)N2 (stereo not given)
    -9, ·, -3, 0, 1, -6, 3, 13
COc1ccccc1NC(=O)NC1CCCc2ccccc21 (stereo not given)
    -14, i, 5, -1, -8, 6, -2, -6
COc1ccc(CNC(=O)CN(C(=O)CCC(=O)Nc2ccccn2)c2ccc(C)cc2)cc1
    2, i, 27, -4, -7, -11, -3, -20
CC1CC1C(=O)Nc1ccc(S(=O)(=O)N2CCCCC2)cc1 (stereo not given)
    -2, ·, -17, -4, ·, ·, 1, ·
CC(C)CC(N)c1csc(Nc2ccc(C(=O)NCCCO)cn2)n1 (stereo not given)
    -14, ·, -3, 1, ·, ·, 0, ·

# Sorted by the number under MT1-MMP act inh (largest number first): some entries from above.
canonical_smiles	UUG fidelity	Rce1 inhib	Env fusion inh	MT1-MMP act inh RFP	MT1-MMP act inh
CC(C)CC(N)c1csc(Nc2ccc(C(=O)NCCCO)cn2)n1 (stereo not given)	-14	·	-3	1	0
CCOC(=O)c1[nH]c(C)c(C(=O)OCC(=O)N(Cc2ccccc2)C(C)C)c1C	-2	·	-3	-8	-3
O=C(Cc1ccc(F)cc1)N/N=C/c1ccc2c(c1)OCO2	-20	i	15	1	-6

# (next part)
# Order of values: UUG fidelity, Rce1 inhib, Env fusion inh, MT1-MMP act inh RFP, PABP polyA inh, CSC inhib, MT1-MMP act inh, eIF4H inh
CCOC(=O)N1CCC(NC(=O)CS(=O)Cc2nc(-c3ccc(Cl)cc3)oc2C)CC1 (stereo not given)
    -1, i, 5, -16, 3, -18, -5, 2
CC(NC(=O)c1ccccc1)C(=O)OCn1nnc2ccccc2c1=O (stereo not given)
    -4, ·, -1, 3, ·, -20, 3, ·
CC(NCc1ccccc1OC1CCCC1)c1ccccc1 (stereo not given)
    1, i, 63*, -3, 11, -4, 1, -5
CCOc1ccccc1NS(=O)(=O)c1cc2c3c(c1)CC(=O)N3CCC2
    8, i, 0, -1, 2, -27, 0, -20
COc1ccc(NC(=O)N2Cc3ccccc3CC2C(=O)NC(C)(C)C)cc1 (stereo not given)
    -9, i, ·, -1, -7, -8, -2, 3
Cc1cc2nc(C(C)(C)C)c(Cc3cccc(F)c3)n2c(C)c1Br
    -11, ·, 23, -6, ·, ·, -1, ·
Cc1ccc(-c2csc(Nc3ccccn3)n2)cc1
    -71, i, -174, -11, 1, 5, -2, -4
Cc1ccc(N(C(=O)Cc2cccs2)C(C(=O)NC2CCCCC2)c2ccccn2)cc1C (stereo not given)
    ·, i, 82*, -13, -8, -18, -11, -10
Oc1ccc(N2CCN(C(c3ccncc3)c3nnnn3C3CCCC3)CC2)cc1 (stereo not given)
    -24, i, -13, 4, -11, -3, 1, -5
COc1cc2c(cc1OC)C(C(=O)N1CCOCC1)C(c1cccs1)N(C)C2=O (stereo not given)
    ·, i, 12, 1, -13, 4, -2, -10
O=C1OC(c2ccccc2)(c2ccc3cc(O)ccc3c2)c2ccccc21 (stereo not given)
    -1, ·, -11, -7, ·, ·, 1, ·
N#Cc1c(SCC(=O)OCc2ccccc2)nsc1SCC(=O)OCc1ccccc1
    -19, i, -36, 0, 4, 3, -2, -4
O=C(COc1ccc2c3c(c(=O)oc2c1)CCC3)NCC1CCC(C(=O)O)CC1 (stereo not given)
    -11, i, -27, 4, 4, 0, -2, -3
COc1ccccc1NC(=O)COC(=O)C1CC1
    ·, ·, 17, 6, 2, -6, 2, -4
COc1ccc(NS(=O)(=O)c2ccc3c(c2)N(C(C)=O)CCS3)cc1
    -9, i, -2, -8, 2, -10, 1, -9
COC(=O)C1C(=O)OC(C)(C)C1C(C)C(=O)c1ccccc1 (stereo not given)
    -16, i, -46, 3, 4, ·, -1, -2
CN(CC(=O)Nc1ccc(N2CCOCC2)cc1)C(=O)c1cc(F)c(F)cc1Cl
    -5, i, -10, 0, ·, -14, 4, ·
CCOc1ccc(NC(=O)c2sccc2-n2cccc2)cc1
    ·, i, 10, -8, -1, ·, -3, -3
COC(=O)C1=C(C)N(C(C)C)C(=O)C1(NC(C)=O)C(F)(F)F (stereo not given)
    -5, i, -38, 1, 2, 3, -3, -2
O=C(CSc1ccsc1[N+](=O)[O-])NCc1ccccc1
    -4, i, 4, -1, -10, -14, 1, -5
COC(=O)CSc1nc2c(c(-c3ccc(C)o3)c1C#N)CCCC2
    -16, i, 19, -3, -4, ·, -6, -5
CCOC(CNC(=O)C1CCN(S(=O)(=O)c2ccc3nc4c(c(C(=O)O)c3c2)CCCCC4)CC1)OCC
    -17, i, 0, 4, ·, -10, -1, ·
O=C(/C=C/c1cccnc1)c1ccc(NC(=O)c2cccc(Br)c2)cc1
    0, i, 24, -3, -7, -3, 0, -2
CNC(C)C(=O)NC(C(=O)NC(C)C(=O)NNc1ccccc1)C(C)C (stereo not given)
    -14, ·, -39, 6, ·, ·, 1, ·
NC(=O)C1CCN(C(=O)c2ccccc2CCc2ccccc2)CC1
    -4, i, 1, -3, 9, -8, -4, -4
Cc1ccc(C(=O)N/C(=C\c2ccco2)C(=O)N2CCCCC2)cc1
    -7, i, 16, 3, 5, -10, -3, 15
Cc1ccc2cc(C#N)c(SCC(=O)N3CCCC3)nc2c1
    -31, i, 19, -2, 8, ·, 3, 2
O=C(CCS(=O)(=O)c1ccc2c(c1)NC(=O)CS2)NCc1ccccc1Cl
    -10, i, ·, 1, 5, -2, -2, -2
COc1ccc(C2SCC(=O)N2c2ccc(OC)cc2)cc1 (stereo not given)
    -7, i, 7, -5, 3, -14, -3, 2
CN1/C(=C\C(=O)COC(=O)c2ccc(O)cc2)C(C)(C)c2ccccc21
    -9, i, 22, -7, 0, 15, 7, 6
COc1cc(-c2nc3ccc(C)cn3c2NCc2ccccc2)ccc1-c1cccc(Cl)c1
    -6, ·, 44, -5, ·, 69, -3, ·
C=CCN1C(=O)c2cccc3c(Br)ccc(c23)C1=O
    -21, i, 9, 2, -8, -6, -1, 0
COc1ccc(NC(C)C(=O)Nc2cccc(S(=O)(=O)N3CCOCC3)c2)cc1OC (stereo not given)
    -2, ·, 34, -16, ·, 4, 5, ·

# Grouped by structure: the entries above with four or more nitrogen atoms
# Order of values: UUG fidelity, Rce1 inhib, Env fusion inh, MT1-MMP act inh RFP, PABP polyA inh, CSC inhib, MT1-MMP act inh, eIF4H inh
Cc1nc(NCCCN2CCOCC2)c2cnn(-c3ccccc3)c2n1
    9, ·, -28, -2, ·, ·, 3, ·
Cc1cccc(C2c3[nH]c4ccccc4c3CCN2C(=O)Cc2nc(-c3ccccc3)n[nH]2)n1 (stereo not given)
    2, i, -7, -4, 3, 9, -2, 4
O=C1CCCC(=O)N1c1ccc(N2CCN(c3ccccc3)CC2)c([N+](=O)[O-])c1
    -20, i, -40, -1, -12, -1, -1, 5
CC(C)CCn1c(-c2nonc2N)nc2ccccc21
    -17, i, ·, -18, -4, -3, -15, -3
CC1=C(C(N)=O)C(c2ccccc2F)n2nc(CCCO)nc2N1 (stereo not given)
    -8, i, ·, 5, -10, -11, -1, -7
COc1ccc(CNC(=O)CN(C(=O)CCC(=O)Nc2ccccn2)c2ccc(C)cc2)cc1
    2, i, 27, -4, -7, -11, -3, -20
CC(C)CC(N)c1csc(Nc2ccc(C(=O)NCCCO)cn2)n1 (stereo not given)
    -14, ·, -3, 1, ·, ·, 0, ·
CC(NC(=O)c1ccccc1)C(=O)OCn1nnc2ccccc2c1=O (stereo not given)
    -4, ·, -1, 3, ·, -20, 3, ·
Oc1ccc(N2CCN(C(c3ccncc3)c3nnnn3C3CCCC3)CC2)cc1 (stereo not given)
    -24, i, -13, 4, -11, -3, 1, -5
CNC(C)C(=O)NC(C(=O)NC(C)C(=O)NNc1ccccc1)C(C)C (stereo not given)
    -14, ·, -39, 6, ·, ·, 1, ·

# From PubChem BioAssay

# This is a random part of the collection, and some 2.9% of all compounds hit somewhere here.
